# Rango release inh = qHTS Assay for Inhibitors of RanGTP induced Rango (Ran-regulated importin-beta cargo) - Importin beta complex dissociation; Potency, µM (series often up to 46.1 µM), for inactives: top-dose activity change, negative = inhibition; Snurportin-1 (Homo sapiens) + GTP-binding nuclear protein Ran (Homo sapiens) + Importin …; 340,000 compounds, 0.071% hits; Biochemical FRET Rango-importin beta, RanGTP-induced dissociation; active means falling FRET ratio curve, often poorly fitted, with flat reads before Ran was added; inconclusive means other falling curves, or compound fluorescence or quenching; inactive means flat or rising ratio curve;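 further: potency means the concentration at half of the fitted maximal effect; % of control where 0% means no effect; nearly all actives have a fitted effect of over 45% in size; -100% = wells without RanGTP and RCC1; the record marks most hits as doubtful in a second field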
#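 Rango (0.1 uM)–importin beta (0.25 uM) complex; RanGTP-RCC1 trigger; 45 min RT; CFP/YFP FRET read.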
# GLA inh pH 4.5 = qHTS Assay for Inhibitors of Human alpha-Galactosidase at pH 4.5; Alpha-galactosidase A (Homo sapiens), P06280; purified enzyme, 4-MU-alpha-Gal fluorescence, pH 4.5; activity change, negative = inhibition, % at 105 µM; 230,000 tested, under 10 active; inconclusive = small, poorly fitted or top-dose-only inhibition, or a rising curve; inactive = flat fitted curve, though single readings scatter; no compound was filed as active;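 further: 0% = full activity with enzyme and -100% = basal without enzyme; dose as in the result columns while the protocol names 77 µM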
# Target sequence (P06280 whole entry, looked up): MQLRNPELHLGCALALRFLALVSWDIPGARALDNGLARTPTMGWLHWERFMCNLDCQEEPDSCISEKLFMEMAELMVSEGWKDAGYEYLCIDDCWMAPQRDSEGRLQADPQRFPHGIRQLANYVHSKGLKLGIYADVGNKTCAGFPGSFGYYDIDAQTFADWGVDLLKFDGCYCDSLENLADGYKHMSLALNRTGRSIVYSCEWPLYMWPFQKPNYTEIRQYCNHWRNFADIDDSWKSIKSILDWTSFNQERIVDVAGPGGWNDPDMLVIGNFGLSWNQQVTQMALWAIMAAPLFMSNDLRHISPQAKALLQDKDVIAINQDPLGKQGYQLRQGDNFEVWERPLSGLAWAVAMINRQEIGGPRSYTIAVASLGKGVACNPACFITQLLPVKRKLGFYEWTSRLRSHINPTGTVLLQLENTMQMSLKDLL
# miR-21 FLuc = qHTS Assay for Modulators of miRNAs and/orActivators of miR-21; HeLa miR-21 FLuc reporter, luciferase, 48 h; 340,000 tested, under 10 active; Potency, µM (top dose mostly 38.3 µM), for inactives: at the highest dose reporter change, positive = more light; active = well fitted rising curve with a large enough effect; inconclusive = small, poorly fitted or top-dose-only effect; inactive = no such curve, though single readings can be large or run the other way;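 further: % of control where 0% means no effect; miR-21 action dims this reporter so a rising signal means less miR-21 action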
#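 HeLa cells endogenously expressing miR-21, stably carrying CMV-driven firefly luciferase with a downstream miR-21 binding site, 2000 cells/well. Titrations up to approximately 40 uM, 48 hours; luciferase luminescence read.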
# Rango-impB inh = qHTS Assay for Inhibitors of Rango (Ran-regulated importin-beta cargo) - Importin beta complex formation. Rango CFP/YFP FRET sensor + importin beta, 45 min. Potency, µM (series often up to 92.2 µM), for the others: top-dose inhibition of complex formation. Importin subunit beta-1 (Homo sapiens), Q14974. 340,000 compounds, 0.031% hits. AID 540263, 2011; active = rising FRET ratio curve, often small or poorly fitted; inconclusive = mostly compound fluorescence or quenching in the first reads; inactive = flat curves in all reads;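 further: potency means the concentration at half of the fitted maximal effect; 0% = DMSO wells and 100% = buffer wells lacking importin beta; nearly all actives have a fitted effect of over 15% in size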
#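 Inhibition scored from the CFP 486 nm/YFP 530 nm FRET ratio 45 min after adding 0.125 microM importin beta to 50 nM Rango biosensor preincubated 5 min with compound (room temperature, PBS with DTT, Tween-20, BSA). No-importin wells as positive control.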
# * hit, by the source's call; ? = inconclusive; . = not tested or not shown. Some of the compounds tested (hit frequency here may not be typical).
# A first look (two entries):
# Results follow in this order: GLA inh pH 4.5	Rango release inh	Rango-impB inh	miR-21 FLuc
NC(=O)CC(NC(=S)NCc1ccccc1)C(=O)O (stereo not given)
  5	-11%	-1.5%	1%
COc1ccc(Cl)cc1NC(=O)NC(C)c1ccncc1 (stereo not given)
  -4	0%	0.6%	-5%

# The whole of this part, previewed entries included:
# Results follow in this order: GLA inh pH 4.5	Rango release inh	Rango-impB inh	miR-21 FLuc
NC(=O)CC(NC(=S)NCc1ccccc1)C(=O)O (stereo not given)
  5	-11%	-1.5%	1%
COc1ccc(Cl)cc1NC(=O)NC(C)c1ccncc1 (stereo not given)
  -4	0%	0.6%	-5%
CCc1ccc(CN(C)C(=O)c2ccc3c(c2)OCCO3)cc1
  .	2%	-2.8%	2%
COc1ccc(CSCC(=O)N/N=C/c2ccccc2OCc2ccccc2)cc1
  -2	8%	0.0%	-16%
CN1CCN(CCOC2Cc3ccccc3Sc3ccc(Cl)cc32)CC1 (stereo not given)
  -4	-4%	2.1%	-2%
NNC(=S)Nc1ccc(OC(F)(F)F)cc1
  6	-10%	-1.0%	7%
Cc1cccc(NNC(=S)Nc2c(C)cccc2C)c1
  .	2%	0.7%	12%
COc1ccc(OC)c(C(=O)c2coc3ccc(O)cc23)c1
  .	20%	-3.3%	-7%
Cc1ncsc1C(=O)N1N=C2/C(=C/c3ccc(N4CCOCC4)cc3)CCCC2C1c1ccc(N2CCOCC2)cc1 (stereo not given)
  -1	-1%	?	-17%
CCOc1ccccc1Oc1coc2cc(OC(=O)c3ccco3)ccc2c1=O
  -9	-2%	-0.5%	-25%
O=S(=O)(Nc1ccc(Br)cc1)c1cccc(NC(=S)NCCN2CCOCC2)c1
  .	-12%	0.9%	16%
Cc1ccccc1CN1CCN(C(=O)c2ccc(S(=O)(=O)NCc3ccco3)cc2)CC1
  .	10%	-1.9%	.
COc1ccccc1/C=C/C=N/n1c(-c2cc(-c3ccccc3)n[nH]2)n[nH]c1=S
  -4	12%	-0.4%	-24%
O=C(Nc1ccc(N2CCOCC2)cc1N1CCOCC1)c1ccc([N+](=O)[O-])cc1Cl
  .	-10%	-2.1%	-4%
COc1ccc(Br)c(C(=O)N2CCN(S(=O)(=O)/C=C/c3ccccc3)CC2)c1
  -16	31%	1.1%	3%
CCCNS(=O)(=O)c1ccc(OCC(=O)Nc2ccccc2F)cc1
  1	0%	-0.7%	-10%
NS(=O)(=O)c1ccc(CNC(=O)c2ccc3c(=O)n4c(nc3c2)CCC4)cc1
  .	-12%	0.8%	.
Cc1cnc(C(=O)Nc2ccc(OC(F)(F)F)cc2)cn1
  .	1%	0.2%	-18%
CO[C@H]1/C=C/O[C@@]2(C)Oc3c(C)c(O)c4c(O)c(c(C=NN5CCN(C)CC5)c(O)c4c3C2=O)NC(=O)/C(C)=C\C=C\[C@H](C)[C@H](O)[C@@H](C)[C@@H](O)[C@@H](C)[C@H](OC(C)=O)[C@@H]1C
  .	30%	3.4%	.
CCc1nc(SCc2ccc(F)cc2)n[nH]1
  1	-18%	-3.0%	-31%
Cc1ccc(Cn2cnc3ccccc32)cc1
  2	1%	0.4%	1%
CCC(C)C(=O)Nc1ccc(OC)cc1[N+](=O)[O-] (stereo not given)
  2	21%	3.8%	-9%
CC1CCCC(C)N1C(=O)CSc1nnc(COc2ccc(F)cc2)o1 (stereo not given)
  .	11%	0.2%	-4%
O=C(N/N=C/c1ccc(N2CCOCC2)cc1)c1ccccn1
  -1	4%	-0.2%	-44%
O=C(NC1CCCCCC1)c1cccc(S(=O)(=O)N2CCOCC2)c1
  .	-11%	3.0%	.
O=C(NCCCN1CCCC1=O)c1nnc(Cc2c(F)cccc2Cl)o1
  -3	15%	-1.5%	-5%
CN1C(=O)C2C(c3ccc(N(C)C)cc3)=NN(Cc3ccccc3)C2C1=O (stereo not given)
  6	1%	3.1%	-3%
CC1CCc2c(sc(NC(=O)CSc3ncn[nH]3)c2C#N)C1 (stereo not given)
  -1	30%	-3.4%	?
O=C(Cn1cnc2ccccc2c1=O)NNC(=O)c1ccccc1
  -1	22%	0.7%	2%
C=C(Br)CN1[C@@H](Cc2ccccc2)[C@H](O)[C@@]23C=C[C@@H](C[C@@H]2S1(=O)=O)O3
  .	49%	-1.9%	.

# Next section
# Results follow in this order: GLA inh pH 4.5	Rango release inh	Rango-impB inh	miR-21 FLuc
C=C(C)CNC(=S)N1CCNC(=O)C1CC(=O)OC (stereo not given)
  -1	1%	2.9%	-1%
O=C(NC1CCCCC1)N(CCN1CCCC1)Cc1cc2cc3c(cc2[nH]c1=O)OCCO3
  10	7%	-0.3%	-3%
COc1ccc(NC(=O)COC(=O)c2ccc(OCc3c(C)noc3C)cc2)cc1OC
  6	-7%	6.6%	-2%
CC(C)CSc1n[nH]c(=S)s1
  -12	8%	-4.4%	-3%
COc1cc(/C=C/C(=O)Nc2cccnc2)cc(OC)c1OC
  .	9%	3.0%	-7%
Cc1cccc(N2CCN(C(=O)NC(C)c3ccc(F)c(F)c3)CC2)c1C (stereo not given)
  .	10%	-0.1%	1%
CCOC(=O)c1cccc(NC(=O)c2ccc(-n3cnnn3)cc2)c1
  .	-11%	-5.4%	.
CCC(C)NS(=O)(=O)c1ccc(OCC(=O)NCC2CCCO2)cc1 (stereo not given)
  -26	11%	1.5%	-4%
COc1ccccc1NCCC(=O)O
  7	4%	0.4%	-1%
O=C(/C=C/Nc1cccc(C(F)(F)F)c1)C(F)(F)F
  -8	-15%	?	-1%
Cc1cc(NS(=O)(=O)c2c(C)[nH]c(=O)[nH]c2=O)ccc1Br
  .	-2%	1.3%	4%
CCc1nnc(NC(=O)CCC(=O)NC2CCCCCC2)s1
  .	2%	7.1%	2%
COc1ccccc1CNC(=O)COC(=O)c1ccc(S(=O)(=O)N2CCCCC2)cc1
  .	-5%	-1.7%	.
COc1ccc(O[C@H]2C=C[C@@H](c3ccccc3)O[C@@H]2COC(=O)CC/C(C)=N/O[C@@H](C)c2cn([C@H](CO)Cc3ccccc3)nn2)cc1
  -15	.	.	4%
CCOc1ccc(CCNC(=O)COC(=O)c2cccc(S(=O)(=O)N(C)C)c2)cc1OCC
  .	-2%	-1.7%	.
O=C(COc1ccc2c(c1)oc(=O)c1ccccc12)N[C@@H](Cc1c[nH]c2ccccc12)C(=O)O
  .	3%	-1.6%	-1%
CC1CN(c2nc3ccccc3nc2C(C#N)C(=O)OC2CCCCC2)CC(C)O1 (stereo not given)
  0	?	?	1%
NS(=O)(=O)c1ccc(CCNC(=O)C2CCC(Cn3c(=S)[nH]c4ccccc4c3=O)CC2)cc1 (stereo not given)
  -2	4%	-0.1%	4%
Oc1ccc(-c2cc(-c3ccc(O)cc3)nc(-c3ccccc3)n2)cc1
  .	-1%	?	9%
COc1ccc(NC(=O)CN2CCN(S(=O)(=O)c3ccc(Cl)cc3)CC2)cc1Cl
  -12	11%	-1.8%	1%
O=C(Nc1cc(Cl)ccc1N1CCOCC1)c1ccncc1
  .	-4%	0.6%	.
Cc1cc([N+](=O)[O-])nn1CC(=O)NC1CCCCC1
  .	-12%	0.5%	0%
COc1ccc(OC)c(-c2csc(NC(=O)c3ccc4c(c3)OCO4)n2)c1
  -5	-9%	-6.3%	-15%
O=S(=O)(Nc1ccc(F)cc1)c1ccc(NC(=S)Nc2ccccc2)cc1
  -2	2%	3.2%	-8%
Cn1cc(C(=O)c2ccc(Cl)cc2Cl)cc1C(=O)N/N=C(\N)COc1ccc(Cl)cc1Cl
  -5	6%	1.0%	?
CCn1cc(C(=O)NCCC(C)C)c(=O)c2cc(F)c(N3CCN(C)CC3)cc21
  .	4%	0.8%	-1%
CC1=C(C)CC(C(=O)Nc2cccc(Cl)c2)C(C(=O)O)C1 (stereo not given)
  6	0%	-0.2%	-7%
COc1cc(/C=C/C(=O)Nc2ccc(OC)c(S(=O)(=O)N3CCOCC3)c2)ccc1OC(F)F
  .	-7%	-1.2%	.
CCCc1ccc(S(=O)(=O)N2CCN(C(C)C(=O)NCc3ccc(OC)cc3)CC2)cc1 (stereo not given)
  .	12%	-0.7%	.
Cc1ccc2c(c1)c(N=NC(N)=S)c(O)n2Cc1ccccc1
  4	-10%	1.4%	-6%

# New compounds follow:
# Results follow in this order: GLA inh pH 4.5	Rango release inh	Rango-impB inh	miR-21 FLuc
Cc1cc(Cl)ccc1OCCCC(=O)OCC(N)=O
  -1	-8%	-4.1%	14%
COc1ccc(OCCSc2nc3nc(C)cc(C)n3n2)cc1
  2	29%	-5.0%	-18%
Cc1ccc2c(c1)[C@H]1[C@H](CO2)[C@H](c2ccccc2)[C@]2(C)C(=O)NCC(=O)N12
  .	0%	3.3%	.
COc1ccc(C(C(=O)NCc2ccccc2)N(Cc2ccco2)C(=O)c2cnccn2)cc1 (stereo not given)
  0	9%	-0.3%	-1%
Cc1cc(C)n(-c2nc(C)nc(N)n2)n1
  -13	-13%	-0.4%	-4%
Cc1cc(C)cc(NC(=O)C2CCCN(S(=O)(=O)c3c(C)noc3C)C2)c1 (stereo not given)
  .	0%	2.3%	-3%
COc1cc(-c2noc(C)c2C#CCO)cc(OC)c1OC
  .	19%	3.2%	11%
CCOc1ccc(NC(=O)C2CCC(CNc3c(N4CCCCC4)c(=O)c3=O)CC2)cc1 (stereo not given)
  0	3%	-0.8%	0%
NC(=O)C1CCN(C(=O)c2ccc(CS(=O)(=O)c3c(Cl)cccc3Cl)o2)CC1
  -1	23%	-1.8%	-3%
COc1ccccc1C(=O)NCCSCc1c(F)cccc1Cl
  .	-26%	2.5%	-51%
CC(C)n1c2ccccc2c2nnc(SCC(=O)OCN3C(=O)c4ccccc4C3=O)nc21
  -7	-8%	0.1%	-1%
COC(=O)C1(C(F)(F)F)N=C(N(C)C)OC(N(C)C)=N1
  -5	-7%	-3.9%	-8%
CC(=O)NC1=NN(C(C)=O)C(c2cccc([N+](=O)[O-])c2)S1 (stereo not given)
  -7	-8%	4.8%	1%
COCCN(C(=O)COC(=O)c1cc2c(s1)CCCC2)c1c(N)n(Cc2ccccc2)c(=O)[nH]c1=O
  .	-13%	1.8%	.
FC(F)(F)c1ccccc1/C=N/N1CCN(Cc2ccccc2)CC1
  0	30%	-0.5%	-41%
O=C1c2ccccc2C(=O)N1CCC(c1ccccc1)c1ccco1 (stereo not given)
  2	3%	-0.6%	-10%
CCCOC(=O)C(C)Sc1n[nH]c(=O)[nH]c1=O (stereo not given)
  -5	7%	-3.0%	-2%
CC1CC(C)(C)CC2(C1)NC(=O)N(CC(=O)Nc1nccs1)C2=O (stereo not given)
  .	0%	-1.0%	.
CCOC(=O)C1CCCN(CC(O)COc2ccc(OC)cc2C(C)(C)C)C1 (stereo not given)
  -13	-11%	8.4%	-2%
NS(=O)(=O)c1cccc(NC(=O)COC(=O)CCC2CCCC2)c1
  .	2%	0.3%	.
O=C(NP(=O)(N1CCOCC1)N1CCOCC1)C1=C(N2CCOCC2)/C(=C\c2ccccc2)CC1
  11	-15%	?	-1%
COc1ccccc1C(=O)C1CCCN(C(=O)CCn2cnnn2)C1 (stereo not given)
  -14	0%	1.2%	-11%
CCN(CC)C(=O)Oc1cc2c(-c3cc4cccc(OC)c4o3)cc(=O)oc2cc1C
  .	-1%	-1.1%	-7%
CCn1c(=O)cc(OCC(=O)NCCCN2CCN(c3cccc(Cl)c3)CC2)c2ccccc21
  -5	7%	-1.9%	23%
CCCCNC(=O)C1=C(N)C(C(=O)Nc2ccc(C)c(S(=O)(=O)N3CCCCC3)c2)SC1=Nc1ccc(C)cc1C (stereo not given)
  -15	-1%	0.8%	11%
COc1ccc(CC(=O)Nc2cc(S(=O)(=O)N3CCOCC3)ccc2N2CCOCC2)cc1OC
  .	5%	3.6%	.
O=C(COc1ccc(-n2cnnn2)cc1)Nc1ccc(F)c(F)c1
  .	-13%	?	.
